Vif A3G: inhibitors of Vif binding to APOBEC3G peptide, primary screen, biochemical, TR-FRET, GST-Vif 1-94, biotin-A3G peptide, dose response retest (AID 1117319). TR-FRET GST-Vif / biotin-A3G peptide binding; higher % means a stronger effect; test concentration not given here; strong numbers were not always called active. Virion infectivity factor (Human immunodeficiency virus type 1 group M subtype B (isolate …. hit rate 0.57% among 260,000. inhibition, %, or IC50 in µM where a hit was titrated;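 active = above the screen mean plus three standard deviations and confirmed in dose response; inconclusive = results disagree or hit not tested in dose response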;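 note: Vif residues 1-94 fused to GST binding biotinylated APOBEC3G peptide 110-148; 0% = full assay without inhibitor and 100% = GST in place of GST-Vif; retest series ran down from 100 µM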
Beta cell apopt: inhibitors of cytokine-induced beta cell apoptosis, primary screen, luminescence | INS-1E cytokine-induced death, ATP luminescence, 48 h; percent of positive-control rescue, neutral wells zero | protection from apoptosis, % (no concentration beside the values) | hit rate 0.8% among 300,000 | AID 435005, 2010;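 active = all replicates at 75% or more, or half of them and the mean; inconclusive = half reach 75% but not the mean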;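 note: 0% = cytokine-treated negative control wells and 100% = positive control rescue; higher means more ATP so stronger rescue from cytokine killing; wells of about 40 µL received 100 nL stock; the first replicate is given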
rRNA inh HTS: reduced GFP signal of wild-type E. coli, primary screen, bacterial rRNA inhibitor project, GFP/RFP fluorescence, OD600, single point. GFP signal change (wild-type ribosome), % (concentration not given with the values). E. coli WT GFP vs humanized-ribosome RFP mutants, 24 h; hits give low values; DMSO median 0, no signal -100. hit rate 1.6% among 350,000;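 active = significant combined selectivity score with lowered wild-type GFP, culture density cut under 30%, mutant RFP and density less affected; inactive = any of these conditions unmet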; note: one replicate is shown; some compounds called inactive have numbers as strong as hits
Calb FLC: C. albicans growth inhibition with fluconazole, primary screen, CaCi-2 strain, Alamar Blue fluorescence; C. albicans CaCi-2 (fluconazole-resistant clinical isolate) + fluconazole, 48 h; growth inhibition, % (concentration not given with the values); hit rate 0.57% among 300,000; AID 1979, 2009;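 active = most replicates above 75%; inconclusive = exactly half above 75%; inactive = most below 75%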;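 note: all wells also contain fluconazole at 8 µg/ml as a sub-toxic cotreatment; 0% = median of DMSO wells and 100% = median of geldanamycin control wells; wells of about 8 µL received 7.5 nL stock; the first replicate is given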
T cruzi repl: inhibitors of intracellular T. cruzi growth, primary screen, luminescence, NIH3T3 host cells | T. cruzi beta-gal in NIH3T3, 90 h | inhibition, % (no concentration beside the values) | hit rate 1.4% among 300,000 | AID 1885, 2009;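 active = mean inhibition across valid replicates above about 55%, limit read from the data; inconclusive = mean below that limit but half or more replicates reach it; inactive = mean below it, under half of replicates reach it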;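 note: signal also drops with host cell toxicity which is not excluded here; 0% = plate median of DMSO wells and 100% = zero luminescence signal; higher percent means less beta-gal luminescence so fewer parasites; stock transfer was 50 nL into about 50 µL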
MLL AF4-AF9 inh: inhibitors of AF4 peptide binding to AF9, primary screen, biochemical, AlphaScreen, biotin-AF4 peptide, FLAG-AF9, single point; inhibition, % at 10 µM; hit rate 0.47% among 350,000; AID 651704, 2012;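 active = every replicate reaching a set inhibition limit, whatever the replicate mean, cut at about 25% in these data; inconclusive = mean inhibition reaches that limit but some replicates miss it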;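 note: 0% = plate neutral control median and 100% = total signal loss; the record names both 10 and 1 µM as test concentration; the first replicate is given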
Target sequence (P42568 whole entry, looked up): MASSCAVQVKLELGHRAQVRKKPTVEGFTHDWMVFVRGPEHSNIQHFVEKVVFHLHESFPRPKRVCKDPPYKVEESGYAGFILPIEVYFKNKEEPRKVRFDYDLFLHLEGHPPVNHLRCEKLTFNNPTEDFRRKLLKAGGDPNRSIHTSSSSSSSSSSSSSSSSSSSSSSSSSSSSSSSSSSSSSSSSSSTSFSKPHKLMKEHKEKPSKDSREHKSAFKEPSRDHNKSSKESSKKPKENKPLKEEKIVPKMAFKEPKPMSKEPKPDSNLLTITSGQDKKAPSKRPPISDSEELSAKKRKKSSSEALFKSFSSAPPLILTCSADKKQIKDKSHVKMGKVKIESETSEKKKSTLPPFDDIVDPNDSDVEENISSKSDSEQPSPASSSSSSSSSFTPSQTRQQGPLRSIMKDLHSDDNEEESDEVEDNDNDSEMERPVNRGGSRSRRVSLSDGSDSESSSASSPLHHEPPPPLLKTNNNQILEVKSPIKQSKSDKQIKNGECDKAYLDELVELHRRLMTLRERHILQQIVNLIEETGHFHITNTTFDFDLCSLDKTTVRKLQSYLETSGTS
Bfl-1 A1 inh: caspase 3/7 activation in MEF A1-2A-BIM cells, primary screen, A1 inhibitor project, cell-based, luminescence, HTS. hit rate 0.066% among 330,000. AID 2462, 2010. caspase activation, % (no concentration beside the values). Caspase-Glo 3/7 luminescence, 3 h; percent of clofoctol response, vehicle zero;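 active = over half of replicate activation scores above 10%, or exactly half above 10 with the replicate mean above 10; inconclusive = replicate mean below 10 yet half the replicates above 10; inactive = over half of replicates below 10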;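 note: wells of about 30 µL received 50 nL stock; many hits fall short of the cut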
RanGTP-Imp inh: inhibitors of RanGTP-importin-beta interaction, primary screen, biochemical, FRET, CFP-Ran, YFP-importin-beta, homogeneous; Ran GTPase (GTP-bound) - importin-beta complex; cell-free CFP-Ran/YFP-importin-beta FRET ratio; inhibition, % (test concentration not listed); hit rate 1.1% among 300,000; AID 2216, 2009;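 active = most replicates above 15%; inconclusive = exactly half above 15%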;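 note: 0% = DMSO wells and 100% = Ran loaded with GDP instead of GTP; wells of about 40 µL received 100 nL stock; the first replicate is given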
rRNA inh HTS OD600: further read-out of rRNA inh HTS, marked with its call; OD600 change, %; measured here: OD600 growth;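 optical density of the mix in the first replicate; 0 = DMSO median and -100 = no signal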
rRNA inh HTS RFP: recorded beside rRNA inh HTS, whose call it bears; RFP signal change, %; measured here: RFP humanized mutant strains;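 first replicate; 0 = DMSO median and -100 = no signal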
* hit, by the source's call; ? = inconclusive; . = no result given.

molecule	Vif A3G	Beta cell apopt	rRNA inh HTS	rRNA inh HTS OD600	rRNA inh HTS RFP	Calb FLC	T cruzi repl	MLL AF4-AF9 inh	Bfl-1 A1 inh	RanGTP-Imp inh
Cc1nc2ccccc2c(=O)n1NC(=O)c1c(O)c2c(n(CC(C)C)c1=O)CCCC2	24%	-3	.	.	.	18	13	.	0.6	5.3
CC(=O)Nc1ccc(NC(=O)CN2CCN(c3ccccn3)CC2)cc1	-2%	-2	12	7	-1.3	2	-17	-2.3	-0.6	4.4
CC(OC(=O)CCc1nc2ccccc2c(=O)[nH]1)C(=O)NCc1ccc2c(c1)OCO2 (centres undefined)	12%	.	.	.	.	1	0	.	0.4	-5.9
COc1ccc(OC)c(-c2csc(NC(=O)CSc3nnnn3C)n2)c1	-12%	-9	-3	4	-1.0	-14	0	8.4	0.4	-1.2
OC1(c2nc3ccccc3[nH]2)CCCCC1	.	-12	7	4	-3.8	-8	-18	-1.9	0.2	1.8
Cc1oncc1C(=O)NC(C)C	6%	-3	.	.	.	8	7	.	-0.2	-2.3
CCOC(=O)CON1C(=O)c2ccccc2C1=O	0%	.	.	.	.	-6	-4	.	0.8	-4.7
Cc1cccc(S(=O)(=O)Nc2nc3ccccc3nc2NCc2ccco2)c1	5%	-3	.	.	.	-1	-5	.	0.2	0.8
CCCNC(=O)CN1C(=O)NC(CC)(c2ccc(F)cc2)C1=O (centres undefined)	.	-1	2	1	-1.7	5	-9	0.2	-0.4	-2.3
O=S(=O)(c1cccs1)N1CCN(c2ccccc2Cl)CC1	.	0	-29	-37	-7.7	7	5	-3.0	-0.4	3.1
CNC(=O)COC(=O)/C=C/c1cn(-c2ccccc2)nc1-c1ccc(C)o1	-7%	-10	2	0	14	25	12	-0.3	0.3	1.5
CSCCC(NC(=O)c1ccccc1)C(=O)N1CC=C(c2ccccc2)CC1 (centres undefined)	.	5	8	17	1.2	0	24	5.7	1.6	3.0
CCCc1cc(=O)[nH]c(N/N=C/C=C\c2ccccc2)n1	.	-4	-9	-16	-1.8	-10	-3	2.8	-0.1	0.0
CC(C)NC(=O)c1c(CSc2ccc(Cl)cc2)noc1C(=O)NCc1ccccc1	.	-3	0	-2	5.1	2	7	-1.3	0.5	-6.2
Nc1nc(NCCCN2CCOCC2)nc(Nc2cccc(Cl)c2)c1[N+](=O)[O-]	.	9	-14	-18	0.7	1	21	3.0	-0.6	2.5
Cc1ccc(CSCC(=O)N2CCN(c3ccc(F)cc3)CC2)cc1	-1%	0	.	.	.	2	57*	.	-0.5	3.3
CCc1nn(C(C)C(=O)N(C)Cc2ccccc2)c(=O)c2cc3occc3n12 (centres undefined)	3%	-4	1	3	0.1	-19	3	-0.1	-0.9	-2.5
O=C(NC1CCCC1)C(Cc1ccccc1)n1cccc1 (centres undefined)	-1%	-1	5	-3	-8.2	5	-8	-1.5	.	?
O=C(CN1C(=O)NC2(CCSC2)C1=O)NCc1ccccc1 (centres undefined)	6%	1	9	8	-6.3	-12	-13	-1.5	3.2	-0.5
OCCNC(=S)Nc1ccc(Oc2ccccc2)cc1	-4%	-7	-2	-3	1.5	-8	-4	2.2	1.1	-3.5
CCCc1ccccc1OCCNC(=O)c1cc(=O)n(C)c(=O)n1C	0%	1	0	-1	-6.1	-10	-5	-0.7	0.2	-1.5
COC(=O)c1c(NC(=O)c2ccnn2C)sc(C)c1C	-4%	2	.	.	.	20	6	.	0.5	4.7
CCC(NC(=O)c1ccccc1NC(=O)c1ccco1)C(=O)O (centres undefined)	3%	-6	.	.	.	-7	.	.	-0.5	.
O=C(NCC1CCCO1)/C(=C/c1cn(-c2ccccc2)nc1-c1cccnc1)NC(=O)c1ccccc1 (centres undefined)	4%	1	-10	-15	4.0	23	53	-0.6	-0.4	-0.2
COc1cccc(C(=O)Nc2ccc(Oc3cccc(C(F)(F)F)c3)nc2)c1	.	-2	-12	-29	15	-6	6	-0.8	0.1	7.0
C[C@H](CO)N1C[C@H](C)[C@@H](CN(C)S(C)(=O)=O)Oc2c(NC(=O)Cc3ccccc3)cccc2C1=O	.	0	2	10	7.6	.	.	1.7	0.6	.
COC(=O)c1ccc2c(=O)n(Cc3ccco3)c(SCC(=O)Nc3ccc(C)c(Cl)c3)nc2c1	2%	39	.	.	.	-9	-23	.	17*	0.5
CCOC(=O)Cc1cc(=O)n2[nH]c(-c3ccc(C)cc3)cc2n1	?	.	.	.	.	7	-8	.	-0.4	-3.2
CC(=O)c1c(C)[nH]c(C(=O)OCC(=O)NCCC2=CCCCC2)c1C	9%	-5	2	3	0.6	5	-16	-6.1	-1.0	-3.5
O=C(Nc1ccnn1C1CCN(C(=O)c2ccccc2C(F)(F)F)CC1)C1CC1	7%	-5	.	.	.	-7	-6	0.2	0.2	-3.5
CCOC(=O)N1CCN(C(=O)COC(=O)Cc2ccc(Cl)cc2)CC1	.	-5	1	-1	-1.0	6	-7	1.6	-0.3	-2.8
O=C(CN1C(=O)NC2(CCCC2)C1=O)Nc1nc2c(F)cc(F)cc2s1	1%	-3	-21	-26	-4.2	3	-8	-2.6	-0.5	20*
COC(=O)C1=CN(C2CC2)C=C(C(=O)OC)C1c1ccccc1OC	3%	-2	.	.	.	1	-3	.	-0.5	32*
CC(C)NC(=S)NC(=O)/C=C/c1cccc2ccccc12	.	4	17	12	0.3	-1	-8	-4.8	0.4	-1.4
CCOC(=O)Cc1csc(NC(=O)CSc2nnc(-c3ccc(C)cc3)o2)n1	-3%	3	.	.	.	7	24	.	-3.4	-0.1
Cc1ccc(S(=O)(=O)NCCC(C)C)cc1[N+](=O)[O-]	-11%	-2	6	-2	5.3	-11	0	-32	-0.1	1.0
CC(C)(C)OC(=O)NCCCC1=CC2=CC(=O)C(C)(OC(=O)c3ccco3)C(=O)C2=CO1 (centres undefined)	.	0	.	.	.	3	-3	.	0.7	-15
CCNC(=S)NNC(=O)c1cccs1	10%	-5	.	.	.	9	-11	.	0.2	6.5
CC(C)CNC(=S)N(CCCO)Cc1cc2cc3c(cc2[nH]c1=O)OCCO3	.	-2	9	16	1.3	5	5	-15	1.6	31*
N#C/C(=C\c1ccc2c(c1)OCCO2)C(=O)NC1CCCCC1	.	-11	0	2	-0.2	2	0	-1.6	1.8	0.9
CCOc1ccc(S(=O)(=O)N2CCC(C(=O)OC(C)C(=O)N(C)C3CCCCC3)CC2)cc1 (centres undefined)	.	-8	-4	-12	7.0	1	7	-3.2	-0.6	-4.0
COC(=O)c1c(C)oc2ccc(N(C(C)=O)S(=O)(=O)c3ccccc3)cc12	5%	73	-4	-24	4.0	40	-2	1.0	0.5	2.0
COc1ccc(OC)c(S(=O)(=O)Nc2ccc3c(c2)C(=O)OC3)c1	-3%	.	9	-9	-0.9	-2	16	1.3	1.7	-1.8
CCOC(=O)CN1NC2(CCCCCC2)NC1=S	-11%	1	20	21	2.2	2	9	-0.5	-0.3	1.3
COc1ccc(N(Cc2ccco2)C(=O)c2ccccc2F)cc1OC	6%	0	.	.	.	-3	-2	.	0.2	-1.8
O=C(CSc1nncn1-c1ccccc1)Nc1ccc(F)cc1F	.	.	0	-3	-2.3	-4	-11	-0.3	2.5	-3.7
COc1cccc(CNC(=O)C2CCN(S(=O)(=O)N3CCC(C)CC3)CC2)c1	.	8	7	5	1.0	-1	-5	-2.7	1.0	3.8
Cc1nc(SCC(=O)O)c(C#N)c(-c2ccco2)c1C(=O)N(C)C	2%	-1	11	8	1.6	3	-3	-0.4	1.9	0.1
O=C(N/N=C/c1coc2ccccc2c1=O)c1ccncc1	.	-7	1	-2	-0.9	-15	-23	2.1	-0.4	-1.7
O=C(CC1S/C(=N/N=C/C=C/c2ccccc2)NC1=O)Nc1ccc(Cl)c(Cl)c1 (centres undefined)	.	0	10	9	-5.0	0	7	-9.8	0.5	-2.4

3 entries already listed, ordered by the number in MLL AF4-AF9 inh, smallest number first.
SMILES | MLL AF4-AF9 inh
COc1cccc(CNC(=O)C2CCN(S(=O)(=O)N3CCC(C)CC3)CC2)c1 | -2.7
COC(=O)c1c(C)oc2ccc(N(C(C)=O)S(=O)(=O)c3ccccc3)cc12 | 1.0
CCOC(=O)N1CCN(C(=O)COC(=O)Cc2ccc(Cl)cc2)CC1 | 1.6

(further entries)
molecule	Vif A3G	Beta cell apopt	rRNA inh HTS	rRNA inh HTS OD600	rRNA inh HTS RFP	Calb FLC	T cruzi repl	MLL AF4-AF9 inh	Bfl-1 A1 inh	RanGTP-Imp inh
CC1(c2ccccc2)NC(=O)N(CC(=O)NCC2CCCO2)C1=O (centres undefined)	3%	-1	6	12	-3.6	.	.	-5.4	-0.4	.
Cc1ccc(C(=O)NCc2occc2C(=O)O)o1	20%	-1	.	.	.	31	-17	.	0.3	-3.0
CCOC(=O)c1c(CC(C)C)csc1/N=C/C1C(=O)CC(C)(C)CC1=O	-9%	-9	7	3	0.5	-2	-10	4.5	-0.7	1.1
Cc1cccnc1Nc1nc(-c2ccc(O)cc2)cs1	?	0	.	.	.	15	19	.	-7.3	-1.8
COc1ccc(/C=C2/N=C(SC3CCOC3=O)N(c3cccc(OC)c3)C2=O)cc1 (centres undefined)	-1%	5	.	.	.	6	-9	5.9	1.0	-1.8
COc1ccc(CSC(=N)N)cc1[N+](=O)[O-]	1%	-19	.	.	.	14	-17	.	-0.5	-2.1
CCOc1ccc(NC(N)=O)cc1	6%	-2	9	-6	-4.8	-5	-2	-0.2	-0.1	?
O=C(CSc1nnnn1C1CCCCC1)NCc1ccco1	2%	0	.	.	.	-3	-14	.	0.7	-1.6
CCN(c1cccc(C)c1)S(=O)(=O)c1ccc(OC)c([N+](=O)[O-])c1	-6%	-2	.	.	.	-7	10	-1.6	0.1	3.7

Screening results: PubChem BioAssay, several laboratories

An excerpt, so the mix of outcomes need not match the whole.
